B2AR ag: activates human beta-2 adrenergic receptor causing internalization. P07550. Am2.2-beta2AR cells, FAP receptor internalization, flow cytometry; reference of the scale not given here. response, % (concentration not given with the values). 340,000 compounds, 0.43% hits. AID 504454;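 active means response above a set limit, near 3 SD of response in nonfluorescent compounds, cut at about 42% in these data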;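 further: stock transfer was 100 nL into about 11 µL; a reference agonist was the positive control; negative values mostly stem from fluorescent compounds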
Target sequence (P07550 whole entry, looked up): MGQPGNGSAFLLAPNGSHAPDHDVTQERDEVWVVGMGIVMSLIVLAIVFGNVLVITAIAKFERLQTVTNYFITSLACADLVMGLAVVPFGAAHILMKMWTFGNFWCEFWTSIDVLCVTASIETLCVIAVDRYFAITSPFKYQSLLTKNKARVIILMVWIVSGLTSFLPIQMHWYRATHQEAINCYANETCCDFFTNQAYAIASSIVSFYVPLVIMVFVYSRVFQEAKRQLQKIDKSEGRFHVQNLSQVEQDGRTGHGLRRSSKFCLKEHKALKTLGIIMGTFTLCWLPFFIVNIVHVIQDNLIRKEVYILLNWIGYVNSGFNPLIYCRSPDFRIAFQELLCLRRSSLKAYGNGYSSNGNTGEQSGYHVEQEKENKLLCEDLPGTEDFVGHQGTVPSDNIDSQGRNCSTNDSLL
E coli growth: inhibitors of Escherichia coli growth; OD600, 23 h; hits give low values; OD600 absorbance (no concentration beside the values); 330,000 compounds, 0.21% hits;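 active means OD600 absorbance below the run mean of sample wells minus 3.6 SD, in any replicate, cut at about 0.56 in these data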;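 further: stock transfer was 300 nL into about 60 µL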
HNF4A DNA FP: change in binding of human HNF4 alpha to DNA. HNF4a-FITC DNA binding, fluorescence polarization, 1 h. activity change, % at 10 µM. 360,000 compounds, 0.3% hits; in the data active means activity change above about 30%, passing the limit was not always enough;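 further: controls were the assay level and a saturating level of protein; the project sought stronger binding though the title names inhibitors; some compounds called inactive have numbers as strong as hits; positive values seem to mean higher polarization but the record does not say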
LANA-H2B inh: blocks KSHV LANA binding to histone H2A/H2B; 320,000 compounds, 0.6% hits; Q9QR71; cell-free LANA-H2A/H2B peptide, fluorescence polarization; inhibition, % (test concentration not listed); in the data active means inhibition mostly above about 10%, no sharp cut-off; inactive means mostly below about 6.7%;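 further: stock transfer was 7.5 nL into about 10 µL; 0% = median of vehicle wells and 100% = median of positive control wells; one replicate is shown; the record names a cut of 25% in any replicate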
ALR inh: human ALR oxidase inhibition via reduced H2O2 | inhibition, % (no concentration beside the values) | purified ALR, DTT oxidation, H2O2 HRP-luminol luminescence | 290,000 compounds, 3.8% hits;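 active means mean and each replicate at 75% or more; inconclusive means only one of the two met; inactive means neither met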;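 further: stock transfer was 7.5 nL into about 7.5 µL; 0% = neutral wells and 100% = wells with inactivated enzyme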
Target sequence (P55789 whole entry, looked up): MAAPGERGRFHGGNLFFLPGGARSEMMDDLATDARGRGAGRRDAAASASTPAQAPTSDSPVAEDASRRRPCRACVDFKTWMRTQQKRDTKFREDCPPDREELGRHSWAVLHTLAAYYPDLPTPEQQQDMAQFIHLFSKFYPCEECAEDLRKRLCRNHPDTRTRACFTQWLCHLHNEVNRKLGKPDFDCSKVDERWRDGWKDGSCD
UCH37 DUB inh: blocks the human deubiquitinase UCH37 | Q9Y5K5 | purified proteasome/UCH37, Ub-AMC cleavage fluorescence | inhibition, % (concentration not given with the values) | 330,000 compounds, 0.33% hits | AID 588478;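 active means mean of two replicates above 20%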;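 further: 0% = compound-free wells with enzyme and 100% = wells lacking proteasome; stock transfer was 100 nL into about 20 µL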
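Schedule: 30 min plus 25 min, room temperature / Material: human UCH37 within purified proteasomes / Technique: AMC fluorescence intensity at 355/460 nm / Buffer or medium: pH 7.4 Tris-HCl (50 mM) with ovalbumin, ATP-MgCl2, DTT / Controls: wells without proteasome as full block, compound-free enzyme plus substrate as uninhibited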
FGF22 binding: FGF22 (human) thermal shift binding; recombinant FGF22 thermal shift, SYPRO orange fluorescence; percent of sucrose octasulfate shift, DMSO zero; Q9HCT0; calls only at 9.99 µM; AID 651658; 340,000 compounds, 1.5% hits;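 active means melting point raised past a set limit in the mean and every replicate; inconclusive means no clear call; three in four hits are not shown here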
Target sequence (Q9HCT0 whole entry, looked up): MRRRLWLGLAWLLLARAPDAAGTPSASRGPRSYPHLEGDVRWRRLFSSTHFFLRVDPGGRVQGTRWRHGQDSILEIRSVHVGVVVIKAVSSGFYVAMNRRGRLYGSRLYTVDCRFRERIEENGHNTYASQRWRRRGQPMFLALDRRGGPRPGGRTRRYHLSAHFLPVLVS
Numbers without * were called inactive; i = inactive; ? = inconclusive; / = not tested or not shown. Some of the compounds tested; rates above refer to the full screens.

smiles,LANA-H2B inh,E coli growth,FGF22 binding,UCH37 DUB inh,ALR inh,B2AR ag,HNF4A DNA FP
CCN(CC)CCC(=O)N1c2ccccc2CCc2ccc(NC(=O)OC(C)C)cc21,-1.0,0.664,i,6.6,-13.3,3.8,0.1
CCOC(=O)c1c(NC(=O)CSc2nnnn2-c2ccc3c(c2)OCO3)sc(C)c1C,0.3,0.712,/,1.5,-12.0,1.4,0.7
C/C(=N/NC(=O)c1ccc(NC(=O)c2ccc(F)cc2)cc1)c1ccccc1,3.2,/,/,/,42.8,11.2,-0.2
COc1ccccc1NC(=O)c1ccc(NC(=O)CSc2nnnn2C)cc1,3.4,0.735,/,5.5,-0.5,6.4,3.3
COc1ccc(CCNC(=O)C2CCCN(S(=O)(=O)N3CCCCCC3)C2)cc1OC (stereo unspecified),-3.0,0.693,i,4.0,-1.5,3.8,0.4
CCOC(=O)C1CCN(C(=O)c2cc3c(OC)c(OC)c(OC)cc3[nH]2)CC1,0.9,0.693,i,-0.7,-15.3,12.2,-1.1
CCCC(O)(CCC)C(=O)NN(C(=O)CCl)c1ccccc1,-1.3,0.689,i,-0.2,-1.5,-6.8,4.5
COc1ccc(NCc2nnc(SCC(=O)Nc3cc(C(F)(F)F)ccc3Cl)o2)cc1,0.6,0.7,/,2.3,/,29.6,-3.4
O=C(NC12CC3CC(CC(C3)C1)C2)c1ccc(Br)o1,3.0,0.644,i,1.6,-8.3,-4.4,3.8
C#CCN(N(C)c1ncc(C(F)(F)F)cc1Cl)S(=O)(=O)c1ccc2ccccc2c1,0.6,0.782,/,1.3,89.2*,1.4,1.4
CN(C)c1ccc(C2SCCN2C(=O)c2ccc([N+](=O)[O-])cc2)cc1 (stereo unspecified),0.5,0.688,/,5.5,?,-2.7,-2.0
O=C(COC(=O)C(Cc1ccccc1)NC(=O)c1ccc(Cl)cc1)c1ccc(Cl)cc1 (stereo unspecified),0.9,0.685,i,1.7,0.4,-1.7,-2.6
CCSc1nnc(Cn2c(=O)sc3ccccc32)n1-c1ccccc1C,-5.8,0.754,i,0.8,-2.4,-4.2,-0.5
CCCCc1ccc(S(=O)(=O)NC2CCS(=O)(=O)C2)cc1 (stereo unspecified),-1.3,0.62,i,2.4,-6.2,-2.1,2.4
CCn1c(SCC(=O)Nc2ccc(NC(C)=O)cc2)nc2c([nH]c3ccccc32)c1=O,5.1,0.669,i,3.7,-23.0,-20.8,0.0
Cc1ccc(N2CCCCn3c2nc2c3c(=O)[nH]c(=O)n2C)cc1,2.6,0.679,/,5.2,/,-8.8,0.0
CC(=O)C12C3C4C(C5C1C3C5(Br)C41OCCO1)C21OCCO1 (stereo unspecified),-5.6,0.691,/,-16.5,-6.9,-4.3,3.8
Cc1ccsc1/C=C/C1=Cc2c(sc(NC(=O)CSc3n[nH]c(N)n3)c2C#N)C(C)(C)C1,15.4,0.695,/,-31.7,/,9.5,-2.4
Cc1cccc(N=Nc2c(C)[nH]n(C(N)=S)c2=O)c1C,3.6,0.656,i,5.0,3.5,/,/
COc1cccc(C2SCC(=O)N2c2ccc(C)cc2)c1OC (stereo unspecified),-2.2,0.648,i,-0.6,-55.8,-2.1,1.8
NS(=O)(=O)c1ccc(CCNC(=O)c2cc(-c3ccccc3)nc3ccccc23)cc1,5.8,0.67,/,-2.4,-13.7,6.4,1.7
COc1ccc(S(=O)(=O)N2c3ccccc3OCC2CC(=O)O)cc1 (stereo unspecified),4.0,0.662,i,5.5,-2.4,-6.0,4.3
O=C(Nc1nc2c(s1)CN(Cc1ccccc1)CC2)C1CCCC1,0.5,0.717,i,-5.9,/,-10.5,6.0
CCCCS(=O)(=O)Nc1ccc(C(=O)NCC2CCCO2)cc1 (stereo unspecified),-1.6,0.674,/,4.6,0.7,8.1,-6.0
CC(=O)Nc1ccc(S(=O)(=O)NC2(C(F)(F)F)C(=O)NC(C)=C2C#N)cc1 (stereo unspecified),-13.4,0.646,/,5.7,-3.2,-2.3,0.6
CCOc1ccc(N2Nc3n[nH]c(N)c3N2)cc1,-2.3,0.708,/,14.8,/,-4.7,-8.5
CCCCOc1ccc(C(=O)N(Cc2ccco2)C2CCS(=O)(=O)C2)cc1 (stereo unspecified),-7.0,0.707,/,3.7,-7.0,-22.6,1.2
Cc1ccc(O)c(NC(=S)NC(=O)Cc2ccc(Cl)cc2)c1,1.9,0.701,i,3.2,1.5,4.3,-2.9
CCCN1CCN(CCCNC(=O)Cn2nc(-c3ccc(C)cc3)ccc2=O)CC1,4.6,0.688,/,-4.0,46.3,-4.6,1.5
COC(=O)CNC(=O)CNC(=O)c1nn(-c2ccc(OC)c(Cl)c2)c(=O)c2ccccc12,-4.0,0.677,/,-1.9,-3.5,-6.2,-4.0
Cc1cccnc1Nc1nc(-c2ccc(O)cc2)cs1,4.0,0.665,/,3.6,38.2,3.6,4.4
COCCNC(=S)N(CCc1c(C)[nH]c2ccc(OC)cc12)Cc1cccnc1,-1.9,0.64,i,-0.1,-122.4,0.3,-6.0
CCn1c2ccccc2c2cc(NC(=O)c3ccc(=O)oc3)ccc21,1.9,/,i,/,-12.7,14.9,22.7
Cc1ccc(NC(=O)C(=O)NCCOc2ccc(Cl)cc2)c(C)c1,-0.8,0.728,/,-3.2,-20.4,-6.1,-1.3
C/C(CCc1ccc2c(c1)OCO2)=N\NC(=O)c1ccccc1,6.6,/,i,/,-8.2,0.6,1.9
COc1ccc(CN2CCN(CCCCOc3ccc(Cl)cc3)CC2)c(OC)c1OC,-6.6,0.696,i,3.2,/,1.6,3.3
O=C(O)CCc1nn2c3ccccc3n(CC(=O)c3ccccc3)c2nc1=O,-0.1,0.736,/,-96.1,-2.8,1.3,3.1
CN(C)S(=O)(=O)Oc1ccccc1C(=O)Nc1cccc(C(F)(F)F)c1,2.2,0.702,/,3.3,-14.1,-1.7,1.4
Nc1cccc(-c2nc3cc(S(=O)(=O)c4ccc5oc(-c6cccc(N)c6)nc5c4)ccc3o2)c1,1.3,0.633,/,-12.8,2.0,18.2,-3.6
Cc1cccc(C(=O)N2CCCN(C(=O)c3cccc(C)c3)CC2)c1,6.6,0.745,/,1.9,-24.4,-4.2,-2.0
CCOc1ccc(NC(=O)Nc2ccc3nccnc3c2)cc1,-1.4,0.713,/,2.2,-23.9,10.0,-3.1
O=C(NCCCO)c1ccc(CSc2nc3ccccc3[nH]2)cc1,2.7,0.678,i,0.4,8.9,-2.6,-1.0
Nc1c(C(=O)Nc2ccc(F)cc2)sc2nc(-c3ccco3)ccc12,-0.5,0.744,/,-50.6,3.3,17.8,14.4
O=C(O)C1CCN(C(=O)CSc2nnc3ccccn23)CC1,1.8,0.674,i,-1.2,-0.2,-0.2,-0.2
CC(C)(C)OC(=O)N1CCOCCOCCNCCOCCOCC1,7.0,0.75,/,0.3,-8.6,3.3,0.3
Cc1ccc(C2C(C(N)=S)=C(N)OC3=C2C(=O)CC(C)(C)C3)cc1 (stereo unspecified),-0.4,/,/,/,11.8,-9.2,-1.8
COC(=O)c1cccc(NC(=O)CN2C(=O)C3CCCCC3C2=O)c1 (stereo unspecified),/,0.635,i,2.8,/,-2.0,-1.6
COc1ccc(C(=O)Nc2nc3ccccc3[nH]2)cc1OC,0.5,0.736,i,-1.7,-2.2,-14.8,0.6
COC(=O)C1=C(C)NC(=O)/C1=C/c1ccc(CNS(=O)(=O)c2ccc(C)cc2)o1,-1.0,/,i,0.4,1.8,-2.0,2.3
CC1(C)CC(=O)C=C(NC2=CC3OC(c4ccccc4)OCC3OC2=O)C1 (stereo unspecified),-5.8,0.69,i,2.8,60.5,11.2,-3.0

Additional compounds:
smiles,LANA-H2B inh,E coli growth,FGF22 binding,UCH37 DUB inh,ALR inh,B2AR ag,HNF4A DNA FP
C=CCn1c(CNc2ccccc2)nnc1SCC(=O)N/N=C/c1ccc(O)cc1O,3.4,/,/,/,63.6,0.3,-1.1
C=CCOc1cccc(/C=C2\C(=O)N(Cc3ccc(C)cc3)C(C)=C2C(=O)OC)c1,-4.7,/,i,2.6,-5.0,11.7,-16.3
O=C1Nc2ccc(S(=O)(=O)NCCCO)c3cccc1c23,5.8,0.698,i,i,-18.3,-0.5,3.8
COc1ccc(CN(Cc2cccnc2)S(=O)(=O)c2ccc(-n3cnnn3)c(C)c2)cc1OC,4.0,0.674,/,2.5,-9.3,8.3,0.0
COc1ccc(CC(=O)OCc2cc(=O)n3cc(Br)ccc3n2)cc1OC,-3.0,0.71,i,2.1,4.6,-12.7,-1.5
CCOC(=O)c1ccc(NC(=O)c2nc[nH]c2C(=O)N[C@@H](C)C(=O)OC(C)(C)C)cc1,1.1,/,/,5.6,-6.9,-0.9,-0.7
CC(Sc1nncn1C)C(=O)Nc1ccc(N2CCCCC2)cc1 (stereo unspecified),/,0.672,i,-2.3,92.2*,0.4,1.4
COc1ccc(C(=O)N(Cc2nc(-c3ccc(C)cc3)no2)C(C)C)cc1OC,1.4,0.751,i,4.9,0.7,7.8,0.8
COc1cc(C(C)=O)ccc1OCCCOc1cccc2cccnc12,-0.8,/,i,/,-1.6,2.8,-4.4
O=C(Nc1c[nH]c(=O)[nH]c1=O)c1cc([N+](=O)[O-])cc([N+](=O)[O-])c1,0.0,0.654,i,0.8,-46.2,15.9,1.1
Cc1nn(-c2ccccc2)c(C)c1S(=O)(=O)O,-10.4,0.661,i,4.6,-10.5,0.8,-2.0
Cn1c2c(c3ccccc31)CCN(CCCCN1CCN(c3ccccc3)CC1)C2=O,/,/,i,/,/,1.5,2.1
CCN(Cc1ccncc1)C(=O)C1CCC(=O)N(Cc2ccc(Cl)cc2)C1 (stereo unspecified),-6.4,0.689,i,-4.1,0.9,-11.1,3.1
O=C(CC1C[C@H](C(=O)N2CCCCC2)[C@@]2(CCc3ccccc3)c3[nH]c4ccccc4c3CCN2C1=O)NCc1ccco1 (stereo partly specified),-1.0,0.691,i,3.1,/,1.4,3.2
CC(C)CNC(=S)NC(=O)c1ccc(Cl)cc1Cl,5.0,0.689,i,0.1,-0.3,-4.9,4.2
COc1ccc(-c2oc3ccccc3c2C(=O)OCc2ccc(O)cc2)cc1,-5.8,0.681,i,-40.2,1.7,2.2,-2.1
CN(C1CCS(=O)(=O)C1)S(=O)(=O)c1cccc2nsnc12 (stereo unspecified),5.3,0.757,/,5.6,/,1.7,-4.3
COc1cccc(CN(C(=O)c2ccco2)C2CCS(=O)(=O)C2)c1 (stereo unspecified),0.2,0.652,i,2.3,-1.9,1.3,4.5
CCOC(=O)C1CCCN(C(=S)Nc2ccc(C)cc2C)C1 (stereo unspecified),-1.7,0.642,/,2.0,-13.8,5.5,6.4
Cc1ccc(C2=NS(=O)(=O)N(C)C(C(=O)N3CCOCC3)=C2)cc1,2.4,0.672,i,2.8,-1.7,4.8,1.2
Cc1ccc2c(c1)N(CC(=O)NCCc1ccccc1)C(=O)c1cccnc1O2,-3.0,0.747,i,3.8,-1.4,1.9,2.1
C=C(C)CC1N(c2cccc(OC)c2)C(=O)C2C(C(=O)O)C3C=CC21O3 (stereo unspecified),0.2,0.744,i,1.0,-7.0,3.5,-0.7
COc1cc2c(cc1OC)C1=NC(=O)CN1C(SCc1ccc(C)cc1)=N2,0.6,0.733,/,-5.6,-4.3,12.6,3.2
CCc1ccccc1NC(=O)CNC(=O)CNC(=O)Cc1ccccc1,/,0.675,i,1.9,/,0.5,-3.1
CCOC(=O)c1cc2occc2n1CCCN1C(=O)c2ccccc2C1=O,1.5,0.679,/,1.7,19.5,-0.5,1.2
COc1ccc(/C=C/C2=CC(C)(C)NC(=S)N2)cc1OC,5.8,0.685,i,-6.0,-8.8,-5.0,0.1
COc1ccc(NC(=O)c2sc(=S)[nH]c2N)cc1,5.8,0.675,/,10.5,73.4,-1.4,-0.1
